B2AR ag = beta2AR agonists driving receptor internalization, primary screen, cell-based, FAP fluorogen, flow cytometry | Beta-2 adrenergic receptor (Homo sapiens), P07550 | Am2.2-beta2AR cells; reference of the scale not given here | response, % (no concentration beside the values) | 340,000 compounds, 0.43% hits | AID 504454, 2011;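 active = response above a set limit, near 3 SD of response in nonfluorescent compounds, cut at about 42% in these data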;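 note: stock transfer was 100 nL into about 11 µL; a reference agonist was the positive control; negative values mostly stem from fluorescent compounds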
HNF4A DNA FP = change in binding of human HNF4A to DNA, primary screen, biochemical, fluorescence polarization, FITC-DNA | Hepatocyte nuclear factor 4-alpha (Homo sapiens), P41235 | 1 h | activity change, % at 10 µM | 360,000 compounds, 0.3% hits; in the data active = activity change above about 30%, passing the limit was not always enough;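 note: controls were the assay level and a saturating level of protein; the project sought stronger binding though the title names inhibitors; some compounds called inactive have numbers as strong as hits; positive values seem to mean higher polarization but the record does not say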
E coli growth = E. coli growth inhibition, primary screen, OD600. Escherichia coli growth, 23 h; active compounds read low. OD600 absorbance (concentration not given with the values). 330,000 compounds, 0.21% hits. AID 1053175, 2014;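 active = OD600 absorbance below the run mean of sample wells minus 3.6 SD, in any replicate, cut at about 0.56 in these data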;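 note: stock transfer was 300 nL into about 60 µL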
ALR H2O2 inh = inhibitors of human ALR sulfhydryl oxidase, primary screen, biochemical, H2O2 detection, HRP-luminol luminescence, single point. FAD-linked sulfhydryl oxidase ALR (Homo sapiens), P55789. purified ALR, DTT oxidation. inhibition, % (no concentration beside the values). 290,000 compounds, 3.8% hits;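 active = mean and each replicate at 75% or more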;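 note: stock transfer was 7.5 nL into about 7.5 µL; 0% = neutral wells and 100% = wells with inactivated enzyme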
FGF22 binding = binders of human FGF22 protein, primary screen, FGF22 synaptogenesis inhibitor project, biophysical, thermal shift, single point. recombinant FGF22 thermal shift, SYPRO orange fluorescence; percent of sucrose octasulfate shift, DMSO zero. Fibroblast growth factor 22 (Homo sapiens), Q9HCT0. 340,000 compounds, 1.5% hits. calls only at 9.99 µM;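 active = melting point raised past a set limit in the mean and every replicate; three in four hits are not shown here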
LANA-H2A inh = blockers of LANA interaction with H2A/H2B – biochemical, FP readout, HTS, primary screen | AID 2629, 2010 | 320,000 compounds, 0.6% hits | cell-free LANA-H2A/H2B peptide, fluorescence polarization | inhibition, % (no concentration beside the values) | Protein LANA1 (Human herpesvirus 8 type P (isolate GK18)), Q9QR71; in the data active = inhibition mostly above about 10%, no sharp cut-off; inactive = mostly below about 6.7%;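 note: stock transfer was 7.5 nL into about 10 µL; 0% = median of vehicle wells and 100% = median of positive control wells; one replicate is shown; the record names a cut of 25% in any replicate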
Target sequence (Q9QR71 whole entry, looked up): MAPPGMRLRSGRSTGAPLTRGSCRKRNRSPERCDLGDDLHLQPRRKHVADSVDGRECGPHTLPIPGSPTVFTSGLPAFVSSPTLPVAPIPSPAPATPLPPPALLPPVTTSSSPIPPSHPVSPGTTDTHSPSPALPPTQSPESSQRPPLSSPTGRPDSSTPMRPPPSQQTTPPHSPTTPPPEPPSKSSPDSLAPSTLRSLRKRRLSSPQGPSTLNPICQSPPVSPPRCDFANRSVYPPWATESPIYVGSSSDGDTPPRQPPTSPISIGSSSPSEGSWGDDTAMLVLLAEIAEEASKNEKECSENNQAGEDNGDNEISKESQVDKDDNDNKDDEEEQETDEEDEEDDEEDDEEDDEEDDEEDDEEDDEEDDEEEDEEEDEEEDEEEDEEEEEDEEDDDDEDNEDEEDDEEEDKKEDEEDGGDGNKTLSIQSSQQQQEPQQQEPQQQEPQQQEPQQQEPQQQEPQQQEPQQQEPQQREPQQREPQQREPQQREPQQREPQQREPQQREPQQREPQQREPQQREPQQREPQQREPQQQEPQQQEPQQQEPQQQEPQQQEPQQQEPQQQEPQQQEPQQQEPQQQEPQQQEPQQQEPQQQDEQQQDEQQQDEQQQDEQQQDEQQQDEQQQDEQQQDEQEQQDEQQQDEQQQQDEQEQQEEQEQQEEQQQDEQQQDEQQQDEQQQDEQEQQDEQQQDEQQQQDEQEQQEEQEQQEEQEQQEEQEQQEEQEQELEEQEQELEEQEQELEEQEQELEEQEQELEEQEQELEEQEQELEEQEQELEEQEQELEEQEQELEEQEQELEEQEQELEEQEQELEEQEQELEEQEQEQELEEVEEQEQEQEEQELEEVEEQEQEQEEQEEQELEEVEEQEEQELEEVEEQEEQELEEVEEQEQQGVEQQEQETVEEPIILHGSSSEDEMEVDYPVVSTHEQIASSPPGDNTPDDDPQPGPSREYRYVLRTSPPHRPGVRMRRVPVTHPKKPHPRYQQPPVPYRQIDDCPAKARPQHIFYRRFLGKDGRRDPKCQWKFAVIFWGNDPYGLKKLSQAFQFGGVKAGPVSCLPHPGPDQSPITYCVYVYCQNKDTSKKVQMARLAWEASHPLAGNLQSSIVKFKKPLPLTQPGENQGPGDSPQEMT
UCH37 inh = inhibitors of human UCH37 deubiquitinase, primary screen, biochemical, Ub-AMC cleavage, fluorescence. Ubiquitin carboxyl-terminal hydrolase isozyme L5 (Homo sapiens), Q9Y5K5. purified proteasome/UCH37. inhibition, % (concentration not given with the values). 330,000 compounds, 0.33% hits;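 active = mean of two replicates above 20%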;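 note: 0% = compound-free wells with enzyme and 100% = wells lacking proteasome; stock transfer was 100 nL into about 20 µL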
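Material: Human UCH37 enzyme supplied as purified proteasome complex | Schedule: 30 min preincubation with enzyme, 25 min cleavage at room temperature | Detection: AMC fluorescence 355/460 nm | Measure: % inhibition of Ub-AMC cleavage fluorescence | Controls: Wells without proteasome as full block, compound-free enzyme plus substrate as uninhibited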
* marks the source's active call; other numbers are inactive results; i = inactive; . = not tested or not shown. The list is partial; rates above refer to the full screens.

SMILES | B2AR ag | HNF4A DNA FP | E coli growth | ALR H2O2 inh | FGF22 binding | LANA-H2A inh | UCH37 inh
CCOc1ccc(C(=O)Nc2ccccc2N2CCCC2)cc1 | -12 | 2.6 | 0.68 | -18 | . | -3.8 | 2.9
C1CCc2c(c(N3CCOCC3)nc3sc4c(N5CCOCC5)nnnc4c23)C1 | 3 | -1.6 | 0.71 | . | i | . | 3.3
Cc1ccc(Cl)cc1NC1=NC(=S)N(C(C)C)C12CCCCC2 | 3 | -1.1 | 0.76 | . | . | -0.2 | -1.0
O=C(O)c1ccc(Cn2cnc3c(=S)nc[nH]c32)cc1 | 6 | 7.5 | 0.68 | . | . | . | 2.3
Cc1nc(SCC(=O)Nc2c(C)nn(C)c2C)c2cnn(-c3ccccc3)c2n1 | 3 | 0.7 | 0.72 | . | . | 3.0 | 5.2
CC1(C)Oc2nc3ccccc3n2/C1=C\C#N | 2 | -0.5 | 0.72 | -11 | . | -1.1 | -3.2
COC(=O)[C@@H]1C[C@@H]2CC[C@@H](O)C[C@@H]2N1Cc1ccc(OC)cc1 | -6 | 4.0 | . | -11 | i | 3.5 | -0.1
O=C(Cn1nc(C(F)(F)F)c2c1CCC2)N1CCN(c2ccccc2)CC1 | -7 | -1.0 | 0.73 | -2 | . | -5.4 | 2.5
CN1CCN(C(=O)c2c(O)c3cccc4c3n(c2=O)CC4)CC1 | -9 | 2.3 | 0.73 | 0 | . | -5.7 | 3.1
CCCn1c(C)cc(=O)c2cc(NC(=O)c3ccccn3)ccc21 | -11 | 4.4 | 0.74 | 2 | . | 1.9 | 5.2
O=S(=O)(c1cc(Cl)cc(Cl)c1)N1CCCC1c1nc2ccccc2s1 (centres undefined) | -1 | -1.3 | 0.72 | -19 | . | -2.8 | -0.8
COc1cc(C(=O)NCc2nnc(SCC(=O)N3CCCCCC3)o2)cc(OC)c1OC | 8 | -3.9 | 0.6 | -2 | i | 2.3 | -0.3
CCOC(=O)N1CCN(C(=O)CSc2ccc3nnc(CCNC(=O)c4ccccc4)n3n2)CC1 | -11 | -1.0 | 0.7 | -15 | i | -2.6 | 3.3
CC[C@@H]1CC=C[C@H]2[C@H]1C(=O)N(Cc1ccccc1)[C@H]2c1ccc(OC)c(Cl)c1 | 0 | -1.9 | . | -1 | i | 1.8 | .
Cc1cc(C)cc(NC(=O)Cn2nnc(C(=O)NCCc3ccccc3)c2N)c1 | -6 | -0.5 | 0.67 | -7 | i | 0.2 | 1.0
CCOC(=O)C1(CCOc2ccccc2)CCN(Cc2nccn2CC)CC1 | 1 | -0.8 | 0.69 | -18 | i | -8.9 | 2.5
CCOC(=O)c1ccc(Cl)c(S(=O)(=O)N2CCCC2)c1 | 3 | 1.0 | 0.67 | 8 | i | -5.4 | 4.4
CN(C)Cc1c(O)ccc2cc(-c3nc4ccccc4n3C)c(=O)oc12 | 38 | -9.6 | 0.7 | -19 | i | -3.5 | i
O=C(O)c1cccc(N2C(=O)CSC2c2c(F)cccc2Cl)c1 (centres undefined) | 3 | -4.3 | 0.69 | -7 | . | 12 | 2.7
Cc1cccc(C(=O)Nc2ccc(N3CCN(C(=O)c4ccco4)CC3)cc2)c1 | 6 | 1.2 | 0.69 | 10 | i | 3.3 | 3.6
CCOC(=O)c1c(NC(=O)c2cnn3c2NC(c2cccc(OC)c2)CC3C(F)(F)F)sc2c1CCCC2 (centres undefined) | 3 | 6.4 | 0.68 | . | . | 2.0 | -373
O=c1oc2cc(O)ccc2s1 | 3 | -3.9 | . | 68 | i | -3.6 | -1.0
COc1ccccc1NC(C)=O | 2 | -0.1 | 0.73 | -6 | . | 5.3 | -0.7
CC(=O)Nc1ccc(C(=O)NC(CC(=O)O)c2ccc(Cl)cc2)cc1 (centres undefined) | 6 | -2.4 | 0.62 | -5 | . | -4.4 | 1.1
CCOc1ncccc1C(=O)NCc1ccccc1F | -4 | 3.3 | 0.65 | -4 | i | 1.7 | 1.9
CN(C)/C=C(/C(=O)c1ccc(Cl)c(Cl)c1)c1nnnn1-c1ccccc1 | -2 | -0.8 | 0.65 | -3 | i | 0.2 | 5.9
C=CCc1ccccc1OCC(=O)OCCNC(=O)c1cccnc1 | 9 | 2.0 | 0.75 | -1 | . | 0.1 | 1.5
CCOc1cc(NC(=O)Nc2ccc(F)cc2)c(OCC)cc1NC(=O)CC | -8 | -0.4 | 0.72 | -17 | i | 0.8 | 1.9
N#C/C(C(=O)NCc1ccco1)=C1/SC(Cc2ccc(F)cc2)C(=O)N1c1ccccc1 (centres undefined) | -5 | 2.2 | 0.81 | . | . | 3.7 | 5.6
CCC(C)(C(=O)NC1CCCC1)N(C)C(=O)Cc1c[nH]c2ccccc12 (centres undefined) | -16 | 2.3 | 0.68 | . | i | -3.0 | 5.8
O=C(O)/C=C/C(=O)Nc1ccc(F)cc1F | -6 | 6.2 | 0.69 | 6 | i | -3.3 | 0.2
O=C(CNC(=O)C12CC3CC(CC(C3)C1)C2)N1CCN(S(=O)(=O)/C=C/c2ccccc2)CC1 | 1 | 1.1 | 0.71 | -27 | i | 3.8 | 1.4
Cc1snc(SCC(=O)c2ccc(F)cc2)c1C#N | -18 | -0.9 | 0.65 | -5 | i | 5.1 | 0.2
COc1ccc(C(=O)Nc2ccccc2C(=O)N/N=C/c2ccccn2)cc1OC | 5 | -0.1 | . | -11 | i | -1.3 | .
CCN(Cc1ccccc1)C(=O)c1oc2ccc(S(=O)(=O)N3CCOCC3)cc2c1C | 1 | -0.8 | 0.7 | . | i | 0.3 | 7.1
C=CCNC(=O)N1CCCC(C(=O)c2cccc(Cl)c2)C1 (centres undefined) | -6 | -2.0 | 0.73 | -30 | i | 1.8 | 4.6
Cc1ccc(S(=O)(=O)NC(=O)c2ccccc2C)cc1 | -9 | -4.0 | 0.71 | -1 | i | -0.7 | 0.1
Cc1ccc(C2CC(C(F)(F)F)n3nc(C(=O)NCc4ccco4)cc3N2)cc1 (centres undefined) | 0 | -2.6 | 0.7 | -7 | . | -0.6 | 3.1
O=C(O)CCCCCNc1nc2ncn(Cc3ccccc3)c2c(=O)[nH]1 | 4 | -1.7 | 0.7 | -1 | i | -5.9 | 4.3
CCc1cc2c(=O)c(Oc3ccccc3)c(C)oc2cc1O | 1 | -1.0 | 0.65 | -15 | . | 1.3 | -170

Three compounds already listed, sorted by formula weight, smallest number first.
SMILES | B2AR ag | HNF4A DNA FP | E coli growth | ALR H2O2 inh | FGF22 binding | LANA-H2A inh | UCH37 inh
COC(=O)[C@@H]1C[C@@H]2CC[C@@H](O)C[C@@H]2N1Cc1ccc(OC)cc1 | -6 | 4.0 | . | -11 | i | 3.5 | -0.1
CCOC(=O)C1(CCOc2ccccc2)CCN(Cc2nccn2CC)CC1 | 1 | -0.8 | 0.69 | -18 | i | -8.9 | 2.5
C1CCc2c(c(N3CCOCC3)nc3sc4c(N5CCOCC5)nnnc4c23)C1 | 3 | -1.6 | 0.71 | . | i | . | 3.3

Next section
SMILES | B2AR ag | HNF4A DNA FP | E coli growth | ALR H2O2 inh | FGF22 binding | LANA-H2A inh | UCH37 inh
CC(=O)c1ccc(N2CCN(C(=O)c3cc4c(-c5ccccc5F)nn(C)c4s3)CC2)cc1 | 17 | -2.2 | 0.8 | -22 | i | -5.4 | -3.0
Cc1cccc(C(=O)N/C(=C\c2ccc(C)o2)C(=O)O)c1 | -2 | 0.7 | 0.64 | 5 | i | 2.2 | 4.5
COC(=O)c1ccc(C2NC(=O)c3ccccc3O2)cc1 (centres undefined) | 10 | -3.0 | 0.66 | -2 | i | -2.7 | 1.1
COc1cc(NC(=O)CSc2nc(C)c(C)c(C)n2)c(C)cc1[N+](=O)[O-] | 4 | -1.1 | 0.67 | 2 | i | -4.3 | 2.3
CC(=O)NC(c1ccc(C(C)C)cc1)c1c(O)ccc2ccccc12 (centres undefined) | -7 | -6.8 | 0.68 | -10 | i | -6.2 | 1.1
CCN1CCN(C(=O)/C=C/c2ccc(OC)c(OC)c2)CC1 | -3 | 0.2 | 0.65 | -22 | i | -0.6 | -18
CC(C)(C)NC(=O)NC(=O)COc1ccc(Br)cc1Br | -10 | 0.2 | 0.66 | -17 | i | 13 | 1.9
COCCCn1c(SCC(=O)NC2CCCC2)nnc1-c1ccco1 | 0 | 3.6 | 0.73 | 1 | i | 4.7 | 0.9
Fc1ccc(NC(=S)NC2CCCCC2)c(F)c1F | 1 | -1.1 | 0.63 | 38 | . | -0.7 | 6.7
Cc1nc2cc(N3CCCCC3)c(NC(=O)c3ccncc3)cc2c(=O)n1Cc1ccccc1 | 4 | 0.1 | 0.79 | . | . | . | -0.7
COc1ccc(COC(=O)CCc2cc(OC)c(OC)c(OC)c2)cc1F | -7 | 2.3 | . | . | i | . | .
[O-]C1=N/[N+](=C/c2ccc(Cl)cc2)CC1 | -1 | -3.5 | . | 41 | . | 3.5 | 7.1
Cc1ccc(-n2c(N)c(C(=O)NCc3cccnc3)sc2=S)cc1 | -7 | 2.5 | 0.74 | -2 | . | -5.9 | 4.9
O=C(Cn1c(=O)c2c3c(sc2n(Cc2ccccc2)c1=O)CCCC3)NCCO | 1 | 1.5 | 0.7 | . | i | -0.8 | 1.2
CCOc1ccc2nc(N3C(=O)/C(=C/c4ccccc4)NC3=S)sc2c1 | 12 | -0.6 | 0.74 | 3 | i | 2.0 | 14
CCN(CC)S(=O)(=O)c1ccc(Cl)c(C(=O)NCc2ccco2)c1 | -1 | -3.5 | 0.7 | -3 | i | -4.1 | 1.8
COCCN1C2=C(COC(C)(C)C2)C(=S)NC1c1ccccc1 (centres undefined) | 2 | 3.2 | 0.69 | -3 | i | 0.5 | 1.3
CSc1ccc(S(=O)(=O)Nc2c(C)cccc2C)cc1 | -10 | -0.4 | 0.73 | -2 | . | 3.1 | 3.8
O=C(NC1CCCC1)c1c[nH]c2ccc(F)cc2c1=O | -23 | 1.0 | 0.7 | . | . | -1.8 | 0.1
O=C1CSCC(=O)N1Cc1ccc(Cl)cc1Cl | -1 | 0.7 | 0.63 | 3 | i | -2.6 | 0.9
CC(C)C[C@H](NC(=O)OC(C)(C)C)C(=O)N1CCC(C(=O)O)CC1 | -4 | 0.1 | . | -5 | . | 3.5 | -0.7
C/C(Cl)=C\Cn1c(=O)c2c(nc3n2CCS3)n(C)c1=O | -8 | -0.7 | 0.76 | -8 | . | 1.3 | -0.4
Cc1ccc2oc(=O)c3cc(C(=O)N4CCN(C)CC4)sc3c2c1 | -1 | 8.3 | 0.7 | . | i | -1.6 | -2.0
O=C(Nc1ccc(F)cc1)c1ccc(Cn2cnnn2)cc1 | 2 | -3.7 | 0.69 | 1 | i | 2.6 | 0.5
O=[N+]([O-])c1ccc(NCCCNS(=O)(=O)c2ccccc2)c(Cl)c1 | 4 | 0.4 | 0.66 | 0 | . | -0.8 | 3.8
CC1CC(C)CN(c2cc(N(C)CCO)c([N+](=O)[O-])c3nonc23)C1 (centres undefined) | -1 | 14 | 0.68 | . | i | . | 20
CC(=O)Oc1ccc2oc(-c3ccccc3)c(C(N)=O)c2c1 | . | . | 0.72 | 0 | . | -1.1 | -86
O=C(NC1CCCC1)C(c1ccsc1)N(Cc1ccccc1)C(=O)Cc1cccs1 (centres undefined) | 1 | 3.4 | 0.65 | 1 | . | 1.3 | -0.1
CCCS(=O)(=O)N1CCCC(C(=O)NCCCN2CCCC2=O)C1 (centres undefined) | 19 | 1.2 | 0.68 | 1 | . | -3.8 | 1.5
COC(=O)Cc1ccc(NC(=S)NNC(=O)C2CC2)cc1 | 2 | -1.8 | 0.66 | 47 | i | -1.5 | 1.6

High-throughput results: PubChem, several laboratories
